# Calb FLC – C. albicans growth inhibition with fluconazole, primary screen, CaCi-2 strain, Alamar Blue fluorescence; growth inhibition, % (test concentration not listed); hit rate 0.57% among 300,000; C. albicans CaCi-2 (fluconazole-resistant clinical isolate) + fluconazole, 48 h;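 active means most replicates above 75%; inconclusive means exactly half above 75%; inactive means most below 75%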;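 further: all wells also contain fluconazole at 8 µg/ml as a sub-toxic cotreatment; 0% = median of DMSO wells and 100% = median of geldanamycin control wells; wells of about 8 µL received 7.5 nL stock; the first replicate is given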
# rRNA inh HTS – reduced GFP signal of wild-type E. coli, primary screen, bacterial rRNA inhibitor project, GFP/RFP fluorescence, OD600, single point. E. coli WT GFP vs humanized-ribosome RFP mutants, 24 h; hits give low values; DMSO median 0, no signal -100. GFP signal change (wild-type ribosome), % (test concentration not listed). hit rate 1.6% among 350,000. AID 720706, 2013;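 active means significant combined selectivity score with lowered wild-type GFP, culture density cut under 30%, mutant RFP and density less affected; inactive means any of these conditions unmet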; further: one replicate is shown; some compounds called inactive have numbers as strong as hits
# A1 inh – caspase 3/7 activation in MEF A1-2A-BIM cells, primary screen, A1 inhibitor project, cell-based, luminescence, HTS; AID 2462, 2010; caspase activation, % (concentration not given with the values); hit rate 0.066% among 330,000; Caspase-Glo 3/7 luminescence, 3 h; percent of clofoctol response, vehicle zero;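 active means over half of replicate activation scores above 10%, or exactly half above 10 with the replicate mean above 10; inconclusive means replicate mean below 10 yet half the replicates above 10; inactive means over half of replicates below 10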;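 further: wells of about 30 µL received 50 nL stock; many hits fall short of the cut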
# T cruzi repl – inhibitors of intracellular T. cruzi growth, primary screen, luminescence, NIH3T3 host cells; hit rate 1.4% among 300,000; AID 1885, 2009; T. cruzi beta-gal in NIH3T3, 90 h; inhibition, % (concentration not given with the values);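 active means mean inhibition across valid replicates above about 55%, limit read from the data; inconclusive means mean below that limit but half or more replicates reach it; inactive means mean below it, under half of replicates reach it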;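 further: signal also drops with host cell toxicity which is not excluded here; 0% = plate median of DMSO wells and 100% = zero luminescence signal; higher percent means less beta-gal luminescence so fewer parasites; stock transfer was 50 nL into about 50 µL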
# LANA-H2A inh – blockers of LANA interaction with H2A/H2B – biochemical, FP readout, HTS, primary screen; Protein LANA1 (Human herpesvirus 8 type P (isolate GK18)), Q9QR71; cell-free LANA-H2A/H2B peptide, fluorescence polarization; inhibition, % (concentration not given with the values); hit rate 0.6% among 320,000; AID 2629, 2010; in the data active means inhibition mostly above about 10%, no sharp cut-off; inactive means mostly below about 6.7%;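 further: stock transfer was 7.5 nL into about 10 µL; 0% = median of vehicle wells and 100% = median of positive control wells; one replicate is shown; the record names a cut of 25% in any replicate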
# B2AR ag – beta2AR agonists driving receptor internalization, primary screen, cell-based, FAP fluorogen, flow cytometry; Beta-2 adrenergic receptor (Homo sapiens), P07550; Am2.2-beta2AR cells; reference of the scale not given here; response, % (test concentration not listed); hit rate 0.43% among 340,000; AID 504454, 2011;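 active means response above a set limit, near 3 SD of response in nonfluorescent compounds, cut at about 42% in these data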;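 further: stock transfer was 100 nL into about 11 µL; a reference agonist was the positive control; negative values mostly stem from fluorescent compounds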
# Target sequence (P07550 whole entry, looked up): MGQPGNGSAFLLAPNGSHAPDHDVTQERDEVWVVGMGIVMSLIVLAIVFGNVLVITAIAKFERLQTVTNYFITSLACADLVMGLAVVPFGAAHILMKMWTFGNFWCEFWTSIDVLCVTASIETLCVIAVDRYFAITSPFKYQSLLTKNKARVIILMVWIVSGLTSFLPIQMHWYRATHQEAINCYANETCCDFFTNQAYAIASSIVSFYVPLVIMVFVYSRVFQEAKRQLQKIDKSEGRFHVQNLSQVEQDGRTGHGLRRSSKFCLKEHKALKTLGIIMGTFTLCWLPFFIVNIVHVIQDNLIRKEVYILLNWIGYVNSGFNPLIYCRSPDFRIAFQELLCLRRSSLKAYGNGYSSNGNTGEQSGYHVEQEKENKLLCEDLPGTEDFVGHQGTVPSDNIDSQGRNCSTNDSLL
# ALR H2O2 inh – inhibitors of human ALR sulfhydryl oxidase, primary screen, biochemical, H2O2 detection, HRP-luminol luminescence, single point. purified ALR, DTT oxidation. hit rate 3.8% among 290,000. FAD-linked sulfhydryl oxidase ALR (Homo sapiens), P55789. inhibition, % (test concentration not listed);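 active means mean and each replicate at 75% or more; inconclusive means only one of the two met; inactive means neither met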;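 further: stock transfer was 7.5 nL into about 7.5 µL; 0% = neutral wells and 100% = wells with inactivated enzyme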
# Target sequence (P55789 whole entry, looked up): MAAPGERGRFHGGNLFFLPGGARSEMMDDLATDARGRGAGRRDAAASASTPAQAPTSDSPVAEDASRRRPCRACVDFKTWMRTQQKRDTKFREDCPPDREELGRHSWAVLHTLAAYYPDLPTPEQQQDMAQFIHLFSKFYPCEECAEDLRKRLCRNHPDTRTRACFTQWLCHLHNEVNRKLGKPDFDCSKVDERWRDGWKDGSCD
# Beta cell apopt – inhibitors of cytokine-induced beta cell apoptosis, primary screen, luminescence; protection from apoptosis, % (concentration not given with the values); INS-1E cytokine-induced death, ATP luminescence, 48 h; percent of positive-control rescue, neutral wells zero; hit rate 0.8% among 300,000;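 active means all replicates at 75% or more, or half of them and the mean; inconclusive means half reach 75% but not the mean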;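 further: 0% = cytokine-treated negative control wells and 100% = positive control rescue; higher means more ATP so stronger rescue from cytokine killing; wells of about 40 µL received 100 nL stock; the first replicate is given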
# rRNA inh HTS OD600 – also measured in rRNA inh HTS; calls as there; OD600 change, %; measured here: OD600 growth;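 optical density of the mix in the first replicate; 0 = DMSO median and -100 = no signal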
# rRNA inh HTS RFP – recorded beside rRNA inh HTS, whose call it bears; RFP signal change, %; measured here: RFP humanized mutant strains;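 first replicate; 0 = DMSO median and -100 = no signal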
# An asterisk follows results filed as active; ? = inconclusive; . = not tested or not shown. This is a subset, so the mix of outcomes need not match the whole.
molecule,Calb FLC,rRNA inh HTS,rRNA inh HTS OD600,rRNA inh HTS RFP,A1 inh,T cruzi repl,LANA-H2A inh,B2AR ag,ALR H2O2 inh,Beta cell apopt
O=C(C[n+]1cccc(NC(=O)c2ccccc2)c1)c1ccc(NC(=O)c2ccccc2)cc1,3.7,.,.,.,0.0,-14.8,6.9,72.2*,17.0,12.2
CC(C)(C)NC(=O)COC(=O)c1ccccc1C(=O)c1ccccc1,-15.6,2.7,4.1,-5.6,0.2,0.2,-13.3,5.8,3.3,-5.3
CC(=O)Nc1ccc(S(=O)(=O)N(C)C2CCN(C)CC2)cc1,3.1,21.3,17.9,0.5,0.8,10.2,13.5,2.1,-7.0,-1.6
COc1cccc(N2CCN(C(=O)c3cc4c(s3)-c3ccccc3OC4)CC2)c1,-2.5,6.6,-12.9,-2.0,-0.1,-1.4,-7.6,-10.7,-20.0,-7.4
Cc1ccccc1OC(C)C(=O)Nc1ccc2c(c1)OCO2 (stereo unspecified),-18.9,-5.9,-18.4,-2.9,0.9,7.1,2.8,-0.4,-6.4,6.2
CC(C)CNC(=O)N1c2ccccc2Sc2ccccc21,4.1,-15.0,-14.8,-2.7,-0.2,3.1,-2.0,-5.8,1.0,-2.1
COc1cc(OC)cc(C(=O)NCC(=O)OCC(=O)c2cc(OC)ccc2OC)c1,7.7,.,.,.,-0.3,-22.7,-3.3,-5.5,-3.3,4.6
CCCCCC(=O)Nc1cccc(C2=NOC3(C2)C[C@@H](C(N)=O)N(C(=O)c2ccc(Cl)cc2)C3)c1 (stereo partly specified),-0.8,.,.,.,-0.2,60.1*,2.3,-12.6,.,-21.4
Cc1csc(NC(=O)c2ccc(S(=O)(=O)N3CCN(C)CC3)cc2)n1,3.0,3.8,4.8,0.0,-0.1,1.8,0.6,0.6,-1.5,-4.3
O=S(=O)(/C=C/c1cccc(Br)c1)N1CCOCC1,9.8,4.8,5.0,-0.6,1.9,3.1,-2.2,-9.4,.,5.1
O=c1c2[nH]cnc2n(-c2ccccc2)c(=O)n1Cc1ccccc1,-0.9,7.5,3.1,-1.7,-0.4,-1.3,-3.4,-3.8,5.1,-1.7
O=C(NC1CC1)c1ccc(F)cc1Cl,-5.4,.,.,.,-0.1,-1.9,5.8,-3.5,-4.9,-3.7
Cc1ccc(S(=O)(=O)NCC2CCC(C(=O)NCCCOC(C)C)CC2)cc1 (stereo unspecified),-2.2,.,.,.,-0.1,-13.6,.,.,.,-11.5
CCOC(=O)C1CCCN(S(=O)(=O)c2cnc(Cl)c(Br)c2)C1 (stereo unspecified),.,2.7,6.7,-3.9,0.5,-27.5,-4.9,9.3,-1.7,5.7
COc1cccc(NS(=O)(=O)c2ccc(NC(C)=O)cc2)c1,0.8,0.7,1.7,-1.3,-0.1,-31.5,1.0,-8.2,-16.0,5.6
Cc1ccc(NC(=O)C(Cc2ccccc2)NC(=O)c2ccco2)cc1 (stereo unspecified),-25.5,.,.,.,-0.4,-3.9,-0.2,-11.1,.,-2.1
COc1ccc(CCN(C)C(=O)c2cccc(S(=O)(=O)NCc3ccccc3)c2)cc1OC,-9.7,-4.7,-16.6,-1.4,-0.8,28.2,-0.4,1.6,-6.5,-1.2
COc1ccc(COn2c(=O)c(C)[n+]([O-])c3ccccc32)cc1OC,-10.3,.,.,.,0.5,-12.9,4.1,1.1,-6.1,-5.2
CCCCCc1ccc(-c2cn(Cc3ccc(C(=O)c4ccccc4)cc3)nn2)cc1,1.0,18.6,31.6,-2.3,1.8,-11.2,1.0,3.4,-3.3,10.1
CCO[C@H]1OC(C(=O)Nc2ccccc2)=C[C@@H](c2ccc(Br)cc2)[C@@H]1CCCO,17.3,-18.5,-27.0,-9.3,-0.1,33.0,-1.2,-12.5,-6.5,-3.2
CSc1ccccc1NC(=O)CSc1nncs1,3.2,13.1,11.2,0.2,0.4,-3.0,2.2,-14.5,-7.5,-11.3
COc1cccc(CNc2ccc3c(c2)ncn3C(C)C)c1OC,14.3,-21.0*,-8.7*,-0.8*,-0.4,-0.3,-0.5,-3.1,91.9*,.
COc1ccc(NC(=O)CSCC(=O)Oc2c(OC)cccc2OC)cc1,-6.5,4.2,9.0,-1.4,-0.7,1.1,4.3,2.1,-2.0,-0.3
CC(NC(=S)Nc1ccc(F)cc1)c1ccccc1 (stereo unspecified),-6.1,-6.9,-33.7,2.1,0.4,-3.3,-1.9,-5.3,.,.
O=C(N/N=C/c1c[nH]c2ccccc12)c1cc2ccccc2o1,-1.7,-13.4,7.9,14.1,0.3,-21.7,-3.0,4.1,-0.1,-4.7
CC(/C=N/NC(=O)c1cc(-c2ccc(Cl)cc2)nc2ccccc12)=C\c1ccco1,-4.8,7.7,12.3,2.7,0.6,26.4,-6.6,-4.4,-5.0,33.6
CCN(C(=O)COC(=O)CSc1ccc([N+](=O)[O-])cc1)C1CCS(=O)(=O)C1 (stereo unspecified),-6.5,18.1,11.5,2.8,-1.0,-1.7,1.6,3.1,-5.9,-6.6
Cc1ccc(S(=O)(=O)N[C@@H](C)C(=O)N2CCC(C(=O)N3CCC[C@H]3C(=O)O)CC2)cc1,-1.5,.,.,.,0.3,-16.5,7.6*,-3.3,-3.6,-7.5
CC(C)Nc1nc(NC(N)=S)nc(NC(C)(C)C)n1,-22.1,-8.1,-9.2,3.1,0.0,12.8,3.6,4.4,.,6.6
O=C1CN(Cc2ccccc2)C(=NCc2ccco2)S1,4.8,.,.,.,0.5,-4.8,-3.2,-2.3,.,-3.2
O=C(Nc1ccccc1)N(CCCN1CCOCC1)Cc1cc2cc3c(cc2[nH]c1=O)OCCO3,-0.9,.,.,.,0.2,8.6,0.4,-1.7,-5.6,-8.3
COc1ccc(-c2nnc(SCC(=O)N3CCCC3)o2)c(OC)c1,-5.7,1.3,1.6,-1.5,0.6,1.1,-0.6,-4.6,.,-7.4
CC1CCc2c(nc3sc4c(c3c2N)CCCC4)C1 (stereo unspecified),11.8,12.9,5.9,-0.7,-2.0,37.5,-2.3,13.0,-17.4,10.7
COc1cccc(Cn2c(Oc3cccc(C)c3)nc3c2c(=O)n(C)c(=O)n3C)c1,7.4,.,.,.,0.0,23.3,-2.7,5.7,1.4,.
Cc1ccc(NC(=O)c2ccc([N+](=O)[O-])cc2Cl)nc1,-15.5,6.9,-1.2,-2.8,-0.6,21.5,-0.1,0.2,-21.6,-3.2
COc1ccccc1OCCOc1ccc(/C=N/n2cnnc2)cc1,?,.,.,.,-0.4,2.7,11.4,8.0,-1.3,0.0
O=C(NOC(=O)c1cc(Br)ccc1Cl)c1cccs1,10.0,.,.,.,0.3,-0.7,-4.8,-4.0,-3.7,-3.3
C=CCNC(=S)/N=c1/ccccn1Cc1ccccc1,-39.1,-2.2,1.9,2.1,1.1,36.1,-3.6,-1.5,-7.1,33.9
Cc1c(C(=O)N2CCc3ccccc3C2)sc2nc(-c3ccccc3)cn12,11.6,.,.,.,-0.6,22.5,-2.2,0.6,0.9,-7.0
O=C(COc1cccc([N+](=O)[O-])c1)N/N=C/c1ccco1,-19.0,10.0,0.3,1.7,0.3,1.1,-1.6,4.9,-2.2,-6.7
COc1cc(C)ccc1S(=O)(=O)N1CCCCCC1,-40.4,-9.3,-6.2,-0.4,-0.6,-12.2,-3.9,-0.2,-24.9,-6.2
COC(=O)c1sc(C(C)(C)C)cc1CSc1ccccc1,-0.5,0.5,1.7,-1.8,1.2,19.8,0.4,1.3,-12.9,0.9
CCOC(=O)C1=C(C)C(c2ccc(OC)cc2)NC(=S)N1 (stereo unspecified),0.3,.,.,.,-0.2,-9.5,0.4,3.5,1.7,-0.2
Cc1ccc(S(=O)(=O)/N=S(\C)CC2CC2(Cl)Cl)cc1 (stereo unspecified),5.3,.,.,.,2.9,-8.6,0.0,2.3,-6.2,5.4
Cc1ccc(NC(=O)C2CCN(S(=O)(=O)c3ccc(N4CCCC4=O)cc3)CC2)cc1Cl,-5.1,-4.6,0.4,3.5,-0.8,20.4,8.4,-8.9,-25.1,122.0*
O=C(CSc1nc2ccccc2c(=O)n1-c1ccccc1)N1CCCc2ccccc21,-12.0,.,.,.,0.2,15.7,-4.0,-2.1,-2.7,-0.7
COc1ccc(F)cc1C(=O)C1CCCN(Cc2cn(C)c3ccccc23)C1 (stereo unspecified),24.2,-31.1*,-23.4*,-1.3*,0.2,33.8,-6.9,3.0,-4.3,-1.2
O=C(O)c1oc2ccccc2c1-n1cccc1,-8.0,.,.,.,1.0,0.4,0.1,4.5,56.8,-4.2
COc1ccc(C)cc1S(=O)(=O)NNc1nc(C)cc(C)n1,.,6.8,-3.2,-1.8,2.9,.,-1.9,-4.1,-55.4,-2.4
Nc1nc(SCc2ccccc2Cl)nc2nc3c(cc12)CCCC3,9.6,.,.,.,-0.3,2.3,2.7,-7.3,-2.2,5.4

# Continued.
molecule,Calb FLC,rRNA inh HTS,rRNA inh HTS OD600,rRNA inh HTS RFP,A1 inh,T cruzi repl,LANA-H2A inh,B2AR ag,ALR H2O2 inh,Beta cell apopt
Cc1nn(-c2ccccc2)c2[nH]c(C(F)(F)F)cc(=O)c12,-0.6,.,.,.,-0.8,3.1,0.9,17.6,2.7,0.9
O=C(COC(=O)Cc1c[nH]c2ccccc12)NC1CCCCC1,4.9,-19.3,-16.0,-2.1,-0.5,-1.4,-0.2,2.3,-11.8,-2.9
CCN(CC)C(=O)Cn1cc(C(=O)C(=O)NCCCn2ccnc2)c2ccccc21,5.2,12.3,5.7,-0.3,0.3,-6.3,1.7,-4.6,.,-4.8
Cc1nc2cc(Cl)ccc2n1-c1ccccc1,-19.9,.,.,.,-0.3,0.6,0.8,0.5,.,-0.6
Clc1ncn(CCOc2ccccc2)c1Cl,1.7,-2.7,6.1,-1.6,0.0,-6.0,2.8,-1.5,3.8,-2.0
COC(=O)c1cc(OC)c(OC)cc1NC(=S)N1CCN(Cc2ccccc2)CC1,17.2,.,.,.,-0.1,13.0,4.2,-5.3,-1.9,3.5

# Given with two lines to a compound: two of the compounds above.
# Under each structure – Calb FLC | rRNA inh HTS | rRNA inh HTS OD600 | rRNA inh HTS RFP | A1 inh | T cruzi repl | LANA-H2A inh | B2AR ag | ALR H2O2 inh | Beta cell apopt
CC1CCc2c(nc3sc4c(c3c2N)CCCC4)C1 (stereo unspecified)
→ 11.8 | 12.9 | 5.9 | -0.7 | -2.0 | 37.5 | -2.3 | 13.0 | -17.4 | 10.7
COc1cccc(Cn2c(Oc3cccc(C)c3)nc3c2c(=O)n(C)c(=O)n3C)c1
→ 7.4 | . | . | . | 0.0 | 23.3 | -2.7 | 5.7 | 1.4 | .
